Hsc70 ATP site – small molecules displacing fluorescent ligand from Hsc70 – biochemical, fluorescence polarization, primary screen (AID 568); 83,000 tested, under 10 active; Hsc70 fluorescence polarization, probe displacement; higher % means a stronger effect; strong numbers were not always called active; one-dose displacement, % at 20 µM; IC50 in µM for titrated hits;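 active means displacement above 50% without optical interference and an IC50 on retest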;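 further: ATPase domain with a fluorescein-tagged ATP probe; 0% = vehicle and 100% = excess ADP; read after one hour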
MT1-MMP promoter – inhibitors of MT1-MMP promoter transcription, cell-based, luciferase reporter, luminescence (AID 618). 87,000 compounds, 0.62% hits. calls from a first round at 10 µM; hits with a dose series show EC50 in µM. MT1-MMP promoter luciferase reporter cells, luminescence;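 active means over half of the reporter light lost at 10 µM or EC50 under 50 µM; inactive means the rest and hits that failed the dose series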;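 further: actives suppress MT1-MMP promoter-driven transcription so potencies describe inhibitors; HT1080 fibrosarcoma cells; overnight exposure; toxic or luciferase-blocking compounds were not removed from the actives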
WNV protease inh – blocks West Nile virus NS2B-NS3 protease activity. P06935. WNV NS2B-NS3 protease, fluorogenic substrate Ex360/Em465; active compounds read low. z-score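 (tested at a level between 10 and 100 µM)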. 65,000 compounds, 0.18% hits. AID 577;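 active means z-score at -3 or under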;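 further: score is relative to mean and spread of the compound wells of a plate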
Target sequence (P06935 1371-1501 limits assumed): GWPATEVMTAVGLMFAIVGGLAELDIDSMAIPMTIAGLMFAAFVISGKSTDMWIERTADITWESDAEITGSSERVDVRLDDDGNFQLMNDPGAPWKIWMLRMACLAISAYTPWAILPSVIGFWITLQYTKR
Target sequence (P06935 1502-1679 limits assumed): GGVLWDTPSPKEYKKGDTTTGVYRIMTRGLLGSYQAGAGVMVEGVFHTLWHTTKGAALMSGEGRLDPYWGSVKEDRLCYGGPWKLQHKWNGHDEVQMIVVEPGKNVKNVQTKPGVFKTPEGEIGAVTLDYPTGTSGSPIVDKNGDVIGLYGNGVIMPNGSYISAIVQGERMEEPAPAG
* hit, by the source's call; i = inactive; · = not tested or not shown.

Results follow in this order: WNV protease inh	MT1-MMP promoter	Hsc70 ATP site
CCOC(=O)c1c(-c2ccc(C)s2)csc1NC(=O)c1ccco1
 : 0.97	i	-7.8%
Cc1onc(-c2ccccc2)c1C(=O)Nc1cccc2nsnc12
 : 1.8	i	4.7%
C/C(=N\OC(=O)c1ccc(Cl)c(Cl)c1)c1sc(C)nc1C
 : ·	i	1.6%
Cc1ccnc(NC(=O)CCC(=O)N(CC(=O)NC2CCCCC2)Cc2ccc3c(c2)OCO3)c1
 : -0.44	i	7.2%
Cc1noc(C)c1C(=O)Nc1nc(C23CC4CC(CC(C4)C2)C3)cs1
 : 0.93	i	0.9%
Cc1ccc2[nH]cc(CCNC(=O)c3cccnc3)c2c1
 : ·	i	-7.5%
CCOC(=O)c1c(C)n(CCO)c2ccc(O)cc12
 : 0.74	i	-6.4%
CCn1c(SCC(=O)NCC2CCCO2)nc2c(c1=O)SC(C)C2 (stereo not given)
 : -1.3	i	3.8%
CC1(C(=O)NC2CCCCCC2)CCC(=O)N1Cc1ccc2c(c1)OCO2 (stereo not given)
 : 2	i	5.2%
Cc1ccc(-n2nnnc2SCC(=O)c2c(N)n(CC(C)C)c(=O)n(C)c2=O)cc1
 : 0.07	i	10%
C=CCc1ccc(OCCOc2cccc(/C=N/n3cnnc3)c2)c(OC)c1
 : ·	i	3.2%
COc1ccccc1N(C(C)=O)c1nc(C)cc(C)c1C#N
 : ·	i	2.4%
N#Cc1c(/N=C/c2cccs2)sc2c1CCC2
 : -0.71	i	-5.5%
C=CCNS(=O)(=O)c1ccc(OCC(=O)OCC)cc1
 : -1.7	i	0.1%
CCn1c(SCc2ccccc2Cl)nc2ccccc21
 : ·	i	3.2%
COC(=O)CSC1=C(C#N)C(c2ccccc2)CC(=O)N1 (stereo not given)
 : -0.32	i	-5.5%
CC(C)C(=O)Nc1ccc2oc(-c3cc(F)c(F)cc3Cl)nc2c1
 : ·	i	0.1%
CCN(Cc1cc2cc(C)ccc2[nH]c1=O)S(=O)(=O)c1ccccc1
 : 0.39	i	-6.8%
O=C1NC(c2ccc3c(c2)OCO3)Nc2ccccc21 (stereo not given)
 : 0.26	i	-0.1%
C[N+]1(CCCCCCC(=O)/C=N/O)CCCCCC1
 : ·	i	-1.4%
CN(C)S(=O)(=O)c1ccc2c(c1)nc(CCC(=O)NCC1CCCCC1)n2C
 : 0.5	i	3.2%
COC(=O)c1ccc(CSc2ncnc3sc(C)c(C)c23)o1
 : -1.3	i	2.6%
O=S1(=O)c2cccc3cccc(c23)N1Cc1ccc(-c2nnco2)cc1
 : 0.38	i	0.3%
Cc1cccc(N2CCN(C(=O)C3CCCN(S(=O)(=O)c4cnc[nH]4)C3)CC2C)c1 (stereo not given)
 : 0.03	i	-0.8%
COc1ccc2[nH]c(=O)c(CN(Cc3ccco3)Cc3nnnn3Cc3ccccc3)cc2c1
 : -1.2	i	-13%
Brc1ccc(-c2nc3ccccc3s2)s1
 : -1.2	i	0.2%
CC(C)(C)c1ccc(S(=O)(=O)CC(O)CSc2nc3c(cc2C#N)CCCC3)cc1 (stereo not given)
 : ·	i	-0.2%
O=C(Nc1nc(-c2ccccc2)cs1)c1ccc(Br)o1
 : -0.62	i	-9.5%
COc1ccc(C2=NOC(C(=O)NC3CCCCC3)C2)cc1OC (stereo not given)
 : -0.4	i	4.5%
CSc1ncc(C(=O)O)n1-c1ccc(F)cc1
 : 0.52	i	6.8%
Cc1cccc(N2C(=O)CC(N(O)c3ccccc3)C2=O)c1 (stereo not given)
 : 1.6	i	0.6%
CCOC(=O)C1CC=C(Cl)CC1C(=O)Nc1nccs1 (stereo not given)
 : -1.2	i	5.7%
CC(C)(C)NC(=O)C(c1ccccn1)N(C(=O)C1CSC(=O)C1)c1ccc(F)cc1 (stereo not given)
 : ·	i	1.7%
COC(=O)C1[C@H]2C(=O)N(Cc3cccs3)C[C@]23C=C[C@H]1O3 (stereo not given in full)
 : 0.86	i	-3.0%
Fc1ccccc1CSc1nncn1NCc1cccs1
 : ·	i	3.3%
Cc1cc(/C=N/NC(=O)CC2(C)OCCO2)c(C)n1-c1cc(Cl)cc(Cl)c1
 : ·	i	-3.4%
COC(=O)c1ccc(CON2C(=O)c3ccccc3C2=O)cc1
 : ·	i	3.6%
CCOC(=O)C1CCN(Cc2cn[nH]c2-c2ccc(C)cc2)CC1
 : -0.77	i	2.3%
Cc1ccc(CNC(=O)CCCn2c(=O)c3ccccc3n(CC(=O)NCc3ccco3)c2=O)cc1
 : 1.8	i	-1.1%
c1ccc(Cn2nnc3cnccc32)cc1
 : 2.3	i	7.2%
CCN(C(=O)COC(=O)C(Cc1ccccc1)N1C(=O)c2ccccc2C1=O)C1CCS(=O)(=O)C1 (stereo not given)
 : -0.0041	i	-2.9%
Cn1c(N2CCC(C(N)=O)CC2)nc2c1c(=O)n(Cc1ccc(Br)cc1)c(=O)n2C
 : 0.87	i	5.2%
O=C1CC(C2CCCO2)C(=O)N1c1cccc(Cl)c1 (stereo not given)
 : 0.95	i	6.0%
Cc1cc(N)n(-c2ccc3ccccc3c2)n1
 : ·	i	-2.2%
CCCc1cc(=O)oc2c(C)c(O)c(CN3CCCCC3)cc12
 : -0.62	i	2.5%
O=C(Cc1coc(-c2ccc(F)cc2)n1)NC1CCCCC1
 : 1.4	i	-3.0%
Oc1c(C(c2cccs2)N2CCOCC2)sc2ncnn12 (stereo not given)
 : -1.3	i	0.5%
COc1cccc(NC(=O)CSc2nnc(-c3cccs3)n2C)c1
 : -0.66	i	2.4%
CCN1CCN(Cc2c(O)ccc3c(=O)c(-c4ccc(OC)c(OC)c4)c(C(F)(F)F)oc23)CC1
 : -0.17	i	0.5%
CCN1CCN(C(=O)CN(Cc2ccccc2)S(C)(=O)=O)CC1
 : 0.29	i	-1.5%
COC(=O)CCN(C(C)=O)c1ccc(N)cc1
 : 0.05	i	-3.4%
Cc1cccc(NC(=O)CSc2nnc(-c3ccccc3)n2N)c1
 : -2.7	i	-6.6%
O=S1(=O)CC(NCc2ccccc2)C(Nc2ccccc2)C1 (stereo not given)
 : -1.2	i	0.7%
CC1CCc2c(sc3ncnc(SCC(=O)c4ccccc4)c23)C1 (stereo not given)
 : ·	i	3.1%
CCC(=O)Oc1ccc(C(CC)C(CC)c2ccc(OC(=O)CC)cc2)cc1 (stereo not given)
 : -0.33	i	3.9%
COC(=O)c1cc(NC(=O)C2COc3ccccc3O2)cc(C(=O)OC)c1 (stereo not given)
 : -0.4	i	3.2%
CCc1c(C(=O)Nc2ncn(Cc3cccc(C)c3)n2)csc1C
 : -0.39	i	-6.3%
FC(F)(F)c1cnc2c(-c3ccc(Cl)cc3Cl)noc2c1
 : ·	i	5.5%
Oc1ccc(-c2nnc(-c3ccc(O)cc3)nn2)cc1
 : -1.2	i	1.3%
COc1ccc(S(=O)(=O)Cc2ccc(C(=O)NCc3cccnc3)o2)cc1
 : -0.41	i	4.7%

Looked up above:
CCOC(=O)c1c(-c2ccc(C)s2)csc1NC(=O)c1ccco1 in Hsc70 ATP site has -7.8%
Cc1cccc(N2C(=O)CC(N(O)c3ccccc3)C2=O)c1 (stereo not given) in WNV protease inh has 1.6
CCc1c(C(=O)Nc2ncn(Cc3cccc(C)c3)n2)csc1C in Hsc70 ATP site has -6.3%

Some of the entries so far, field by field:
Cn1c(N2CCC(C(N)=O)CC2)nc2c1c(=O)n(Cc1ccc(Br)cc1)c(=O)n2C
  WNV protease inh: 0.87	MT1-MMP promoter: i	Hsc70 ATP site: 5.2%

O=C1CC(C2CCCO2)C(=O)N1c1cccc(Cl)c1 (stereo not given)
  WNV protease inh: 0.95	MT1-MMP promoter: i	Hsc70 ATP site: 6.0%

Later entries.
Results follow in this order: WNV protease inh	MT1-MMP promoter	Hsc70 ATP site
O=C(c1cc2nc(-c3ccccc3)cc(C(F)(F)F)n2n1)N1CCCC1
 : -0.11	i	4.4%
Cc1ccccc1C(=O)Nc1ccc(S(=O)(=O)N2CCN(C)CC2)cc1
 : -0.29	i	1.3%
O=C(NC1(C(F)(F)F)C(=O)Nc2c1c(=O)[nH]c(=O)n2Cc1ccccc1)c1ccco1 (stereo not given)
 : ·	i	5.5%
Cc1cc(NC(=O)CSc2nc(C(C)C)nc3c2c(=O)n(C)c(=O)n3C)no1
 : -1.3	i	-2.5%
Nc1nc2n(n1)C(c1ccc(Cl)cc1)CC(c1ccc(F)cc1)N2 (stereo not given)
 : -0.66	i	9.8%
Cc1ccc2cc(C(c3nnnn3C3CCCC3)N(Cc3cccnc3)Cc3ccco3)c(=O)[nH]c2c1 (stereo not given)
 : -0.25	i	-4.6%
CCOC(=O)C1=C(C)NC(=O)CC1c1cc2c(cc1Br)OCO2 (stereo not given)
 : -0.38	i	-4.9%
Cn1c(SCC(=O)c2ccc(F)cc2)nc2cccnc21
 : 0.84	i	5.7%
CCCC(C)C(=O)Nc1ccc(Cl)cc1Cl (stereo not given)
 : ·	i	1.7%
CCOC(=O)c1ccc(NC(=O)CCc2ccc(C)o2)cc1
 : -1.1	i	2.1%
CCn1c(/C=N/n2cnnc2)nc2ccccc21
 : -0.28	i	-4.4%
O=C(CSc1ncccn1)c1ccccc1Br
 : 0.69	i	2.6%
COc1ccc(-n2ncc3c(N4CCN(c5cc(C)ccc5C)CC4)ncnc32)cc1
 : 0.14	i	-1.5%
O=C(CCN1CCc2ccccc2C1)Nc1ccccc1
 : -0.9	i	4.2%
CC(C)CC(=O)Nc1ccccc1N1CCOCC1
 : -0.0075	i	4.1%
CCC(c1nnnn1Cc1ccc2c(c1)OCO2)N1CCN(c2ccccc2)CC1 (stereo not given)
 : -0.81	i	-9.7%
O=C(Nc1ccc2nc(-c3ccco3)[nH]c2c1)c1ccco1
 : -1.2	i	2.4%
COC(=O)c1ccc(Cn2cc(Cl)cn2)cc1
 : -0.86	i	5.8%
COc1ccc(S(=O)(=O)N2CCCN(CC(=O)Nc3ccc(OC)c(Cl)c3)CC2)cc1
 : 0.15	i	-0.9%
O=C(CCS(=O)(=O)c1ccccc1)Nc1nccs1
 : 0.95	i	2.6%
CCCc1nc2ccccc2c(C(=O)OCc2nnc(-c3cc(OC)c(OC)c(OC)c3)o2)c1CC
 : -0.98	i	-6.2%
O=C(O)C(Cc1ccccc1)n1cnnn1 (stereo not given)
 : -0.0099	i	3.8%
CC(=O)Nc1ccc(NC(=O)CN2CCCC(C)C2)c(Cl)c1 (stereo not given)
 : 0.48	i	0.6%
COCCCNC(=O)Cn1nnc(-c2ccc(NC(=O)c3ccccc3OC)cc2)n1
 : -0.35	i	12%
O=C1Nc2ccccc2SC(c2ccccc2)C1O (stereo not given)
 : 0.33	i	9.1%
Cc1ccc(S(=O)(=O)N2CCOCC2)cc1C(=O)NCc1ccc(F)cc1
 : 0.68	i	2.7%
CC1(C)Cn2c(nnc2-c2cccc(O)c2)S1
 : 2.2	i	0.5%
COc1ccc(-c2ccc(OC)cc2C(=O)O)cc1
 : -0.32	i	-3.8%
Cn1ncc(N=Cc2ccccc2O)c1C(=O)N1CCOCC1
 : -0.35	i	0.4%
C=CCn1cnc2c(c1=O)c1nc3ccccc3nc1n2-c1ccccc1
 : -0.21	i	5.3%
CCNc1nc(N2CCOCC2)nc(N(c2ccccc2)c2ccccc2)n1
 : -0.1	i	3.6%
O=C(Nc1ccccc1)c1ccccc1OCC(O)CN1C(=O)c2ccccc2S1(=O)=O (stereo not given)
 : -0.89	i	1.8%
CC(=O)Nc1c(C(=O)N2CCCCCC2)cnn1-c1ccccc1Cl
 : ·	i	-1.7%
COc1ccc(OC)c(NC(=O)CSc2nnc(CNc3ccc(F)cc3)o2)c1
 : -0.44	i	0.4%
CS(=O)(=O)Nc1ccccc1C(=O)Nc1ccccc1Cl
 : ·	i	-0.6%
Cc1ccc(Cn2ccc(NC(=O)c3cc(-c4cccc(Cl)c4)on3)n2)cc1
 : -0.55	i	-0.5%
CCCCCCOc1ccc(N2C(=O)CC(N3CCC(C(=O)OCC)CC3)C2=O)cc1 (stereo not given)
 : -0.24	i	8.7%
O=c1c2cnn(-c3ccccc3)c2ncn1Cc1ccccc1
 : 0.21	i	8.2%
N#Cc1nc(COc2ccc(F)cc2)oc1N1CCN(Cc2ccccc2)CC1
 : -0.24	i	0.9%
CCOC(=O)CNC(=O)CSc1nnc(Cn2c(=O)sc3ccccc32)n1C
 : -0.7	i	2.8%
CCc1nnc(NC(=O)CSc2nnc(Cc3ccccc3)n2Cc2ccccc2)s1
 : -0.56	i	-0.8%
COc1ccc(-n2c(SCC(=O)Nc3ccc4c(c3)OCO4)nc3ccccc3c2=O)cc1
 : 2.4	i	1.2%
O=C(CN1C(=O)C2C3C=CC(C3)C2C1=O)N1CC(=O)N(CCc2ccccc2)C(=O)C1 (stereo not given)
 : -0.08	i	-3.7%
O=C(O)C1C2C=CC(C2)C1C(=O)NCCc1ccncc1 (stereo not given)
 : -0.22	i	-4.1%
O=C(O)CCN1C(=O)C(=C2CCCCCC2)SC1=S
 : -2	i	-10%
Cc1ccc(-c2nnc(N3CCOCC3)c3ccccc23)cc1S(=O)(=O)NCC1CCCO1 (stereo not given)
 : 0.07	i	0.4%
COc1ccc(-c2nc3ccccc3c(=O)n2CCCN2CCOCC2)cc1
 : 0.11	i	4.1%
COc1cc(NC(=O)c2ccco2)c(OC)cc1NC(=O)CCC(=O)Nc1cc(C)ccc1C
 : 0.25	i	-2.7%
